Bioassay records as filed in PubChem BioAssay.
AF4-AF9 inh: inhibitors of AF4 peptide binding to AF9, primary screen, biochemical, AlphaScreen, biotin-AF4 peptide, FLAG-AF9, single point | Protein AF-9 (Homo sapiens), P42568 | inhibition, % at 10 µM | 0.47% of 350,000 active | AID 651704, 2012;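 active = every replicate reaching a set inhibition limit, whatever the replicate mean, cut at about 25% in these data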;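 note: 0% = plate neutral control median and 100% = total signal loss; the record names both 10 and 1 µM as test concentration; the first replicate is given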
Target sequence (P42568 whole entry, looked up): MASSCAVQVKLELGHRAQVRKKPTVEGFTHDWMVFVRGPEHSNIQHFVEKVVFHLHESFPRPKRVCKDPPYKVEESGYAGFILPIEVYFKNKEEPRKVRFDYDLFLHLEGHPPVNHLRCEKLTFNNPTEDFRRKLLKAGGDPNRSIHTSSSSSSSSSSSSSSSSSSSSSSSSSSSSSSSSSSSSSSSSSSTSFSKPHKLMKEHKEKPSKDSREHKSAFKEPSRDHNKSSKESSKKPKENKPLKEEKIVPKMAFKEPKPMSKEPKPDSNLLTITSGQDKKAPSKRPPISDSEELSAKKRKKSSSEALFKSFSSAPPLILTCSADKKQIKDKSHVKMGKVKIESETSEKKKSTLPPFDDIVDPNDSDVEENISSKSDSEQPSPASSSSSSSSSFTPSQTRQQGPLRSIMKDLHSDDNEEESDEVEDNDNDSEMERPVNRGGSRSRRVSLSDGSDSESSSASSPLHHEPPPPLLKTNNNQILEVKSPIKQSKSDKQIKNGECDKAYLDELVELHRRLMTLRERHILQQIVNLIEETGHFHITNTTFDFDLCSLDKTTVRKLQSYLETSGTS
* hit, by the source's call; & = joins results of further samples. Some of the compounds tested; rates above refer to the full screens.

SMILES | AF4-AF9 inh
COc1ccc(C#Cc2ccc3c(c2)[C@]2(C(=O)N3)[C@H](C(=O)N3CCN(c4ncccn4)CC3)[C@H]3C(=O)O[C@H](c4ccccc4)[C@H](c4ccccc4)N3[C@@H]2c2ccc(OCCO)cc2)cc1 | -2.5
O=C(O)/C=C/C(=O)O | 5.6
Cc1ccc(C(=O)NC(C)C(c2cccs2)N2CCOCC2)cc1C (configuration not stated) | -3.0
OC[C@H]1CC[C@@H]2O[C@H](CCc3ccc(C#CCc4ccccc4)cc3)[C@H](n3cc(-c4ccccc4)nn3)C[C@@H]2O1 | -2.4
O=c1ccc2ccc(O)cc2o1 | 5.7
C=CCN1C(=O)[C@@]2(O[C@@H](CCO)[C@H]([Si](C)(C)c3ccc(OC)cc3)[C@H]2C)c2cc(NC(C)=O)ccc21 | -1.0
CCN(CC)CCN1C(=O)C(=O)/C(=C(/O)c2ccc(Cl)cc2)C1c1ccncc1 (configuration not stated) | 1.3
C[C@]12CCC(=O)N1CCc1c2[nH]c2ccccc12 | 1.2&-1.8
Nc1nc(=O)n(C2CCC(CO)O2)cc1F (configuration not stated) | -2.0
OC[C@@H]1CN(Cc2ccccc2)C[C@H](n2cnc3c(NCc4ccncc4)ncnc32)O1 | 0.2
CN(C)CC(=O)N[C@@H]1C[C@@H]2O[C@@H](CO)CC[C@@H]2O[C@@H]1CCc1ccc(C#Cc2ccccc2)cc1 | 12.2
COCC(=O)N[C@H]1C[C@@H]2O[C@H](CO)CC[C@@H]2O[C@@H]1CCc1ccc(-c2ccccc2)cc1 | 0.3
O=C(C1=C[C@H](c2ccc3c(c2)Cc2ccccc2-3)C[C@H](OCCCCO)O1)N1CCCCC1 | -0.4
O=C1O[C@H](c2ccccc2)[C@H](c2ccccc2)N2[C@H]1[C@@H](C(=O)N1CCCCCCC1)[C@]1(C(=O)Nc3ccc(C#CC4=CCCCC4)cc31)[C@H]2c1ccccc1OCCO | 1.3
Cn1cnc(S(=O)(=O)N2CCCCN3[C@@H](CO)[C@@H](c4ccc(C#CC5CC5)cc4)[C@@H]3C2)c1 | 2.5
C[C@@H]1CCCCO[C@H](CN(C)S(=O)(=O)c2ccccc2)[C@H](C)CN([C@H](C)CO)C(=O)c2cc(NC(=O)Nc3ccccc3)ccc2O1 | -1.1
Cc1c(NC(=O)CC#N)c(=O)n(-c2ccccc2)n1C | -12.3
C[C@]12CCC3C4(C=CC5(C=C4C(=O)c4ccc(F)c(F)c4)C[C@@H](O)CC[C@]35C)C1CC[C@@]2(O)CN1CCC(C(N)=O)CC1 (some centres not stated) | 3.0
CCC(=C(c1ccccc1)c1ccc(OCCN(C)C)cc1)c1ccccc1 | 2.7
CC(=O)[C@@]12O[C@]3(COC[C@H](c4ccccc4)N3C1=O)[C@@H]1C(=O)N(c3ccccc3)C(=O)[C@@H]12 | -1.2
O=C1O[C@H](c2ccccc2)[C@H](c2ccccc2)N2[C@H]1[C@@H](C(=O)O)[C@]1(C(=O)Nc3ccccc31)[C@H]2c1ccc(O)cc1 | 2.4
CCCCOc1ccc(S(=O)(=O)NC(=O)C2(C)CCN2C(=O)Cc2cccs2)cc1 (configuration not stated) | -2.3
COc1ccccc1-c1cnc2c(c1)C(=O)N([C@H](C)CO)C[C@@H](C)[C@@H](CN(C)CC1CCCC1)O2 | 0.9
O=C(Nc1cc(F)ccc1F)N1CC(=O)N2[C@H](C1)[C@H](c1ccc(C#CC3CCCC3)cc1)[C@@H]2CO | 4.3
O=C(CCCCCCC(=O)Nc1ccc(CO)cc1)NOCc1ccccc1 | 0.3
O=C(O)CCCCCCC(=O)Nc1ccc(C2OC(CSc3ccncc3)CC(c3ccccc3)O2)cc1 (configuration not stated) | 1.0
COCC(=O)N[C@@H]1C[C@@H]2O[C@H](CO)CC[C@@H]2O[C@@H]1CCc1ccc(-c2ccccc2)cc1 | -2.6
COc1cc2c(cc1O)C=[N+](Cc1cc3c(cc1Br)OCO3)CC2 | 1.4
CO[C@H]1CN(C)C(=O)c2ccc(NC(=O)C3CC3)cc2OC[C@@H](C)N(Cc2ccncc2)C[C@@H]1C | -1.5
O=[N+]([O-])c1nccn1CC(O)CO (configuration not stated) | -8.7
Cc1ccc(NC(=O)C2(C)CCN2C(=O)Cc2ccc(-c3ccccc3)cc2)cc1 (configuration not stated) | 3.0
COc1ccc(C#Cc2ccc3c(c2)[C@]2(C(=O)N3)[C@H](c3ccc(O)cc3)N3[C@H](c4ccccc4)[C@H](c4ccccc4)OC(=O)[C@H]3[C@@H]2C(=O)O)cc1 | -9.5
CCCc1cn([C@H]2C[C@@H]3O[C@H](CO)CC[C@@H]3O[C@@H]2CCc2ccc(-c3ccccc3C#N)cc2)nn1 | -1.1
COc1ccc(NC(=O)CN(C)CC(=O)Nc2cccc(F)c2)cc1S(=O)(=O)N1CCCCC1 | -0.1
COc1cc2ccc(CC(=O)O)cc2cc1OC | -5.8
O=C1CSC(c2ccccc2)N1c1cccc(Cl)c1 (configuration not stated) | -2.4
CC(=O)N1Cc2cc(C(=O)NCc3cc(F)cc(F)c3)nc(-c3cccc(C4=CCCC4)c3)c2[C@H]1CCO | 0.6
COc1ccc(OC)c(NC(=O)Nc2nnc(COCCO)s2)c1 | -0.7
CCC(=O)Oc1ccc(NC(=O)c2ccc(S(=O)(=O)N3CCCC3)cc2)cc1 | -1.3
C=C/C=C/[C@@H]1C(=C)CN2[C@H]1[C@H](Cc1ccccc1)OC(=O)[C@@H]2Cc1ccccc1 | -5.2
CN(C)CCNC(=O)c1ccc2nc([C@@H]3O[C@H](CO)[C@H](O)[C@H](O)[C@H]3O)[nH]c2c1 | -2.0
O=C1O[C@@H](c2ccccc2)[C@@H](c2ccccc2)N2[C@@H](c3ccccc3OCCO)[C@]3(C(=O)Nc4ccc(C#CCCO)cc43)[C@@H](C(=O)N3CCCCCCC3)[C@H]12 | -2.6
CN1C(=O)c2cc(NC(=O)c3ccccc3Cl)ccc2OC[C@H]2O[C@H](CC(=O)NCC(F)(F)F)CC[C@H]21 | -5.8
CC(C)(O)c1cn([C@H]2C[C@@H]3O[C@@H](CO)CC[C@@H]3O[C@@H]2CCc2ccc(-c3cccnc3)cc2)nn1 | -4.8
S=C(S)OC1CC2CC1C1CCCC21 (configuration not stated) | -0.9
COc1ccc(/C=C/C(=O)c2c(O)cc(OC)cc2OC)cc1 | 1.0
CCCNC(=O)c1cc2c(c(-c3cccc(-c4cccc(F)c4)c3)n1)[C@H](CCO)N([S@@](=O)C(C)(C)C)C2 | 2.5
O=S(=O)(c1cccs1)N1CCCCN2[C@H](CO)[C@H](c3ccc(C4=CCCCC4)cc3)[C@@H]2C1 | -5.1
CN(C)C(=O)c1ccc(-c2ccc([C@H]3[C@H]4CN(C(=O)C5CCC5)CCCCN4[C@H]3CO)cc2)cc1 | 12.9
Cc1cnc(C2OCCO2)c2cccc(N)c12 | 16.9
OC[C@@H]1[C@H](c2ccc(C3=CCCC3)cc2)[C@@H]2CN(CCC(F)(F)F)CCCCN12 | 5.7
Cc1ccc(S(=O)(=O)NC2CCN(Cc3cccc(OCCO)c3)CC2)cc1 | 16.7
C=CCN1C(=O)[C@]2(O[C@H](CCO)[C@@H]([Si](C)(C)c3ccc(OC)cc3)[C@@H]2C)c2cc(N3CCOC3=O)ccc21 | 0.2
CC(C)Nc1ncnc2c1ncn2[C@H]1CN(Cc2ccccc2)C[C@@H](CO)O1 | -3.2
N#C[C@H]1N[C@@H](CO)[C@@H]1c1ccc(C2=CCCC2)cc1 | -3.9
O=C(C1CCCC1)N1CCCCN2[C@H](CO)[C@@H](c3ccc(C#CC4CC4)cc3)[C@H]2C1 | 5.6
COc1ccc(C(=O)/C=C/c2ccc(O)cc2)c(O)c1C/C=C(\C)CCC=C(C)C | 12.8
COc1ccc(CC(N)c2csc(Nc3cnccn3)n2)cc1 (configuration not stated) | 5.8
CC(C)C#Cc1cnc2c(c1)C(=O)N([C@@H](C)CO)C[C@H](C)[C@H](CN(C)C(=O)c1ccccc1)O2 | -2.9
Cc1cccc(S(=O)(=O)N2CCCCN3[C@H](C2)[C@@H](c2ccc(-c4ccccc4)cc2)[C@@H]3CO)c1 | -7.1

Some of these compounds in order of count of non-hydrogen atoms, low to high:
SMILES | AF4-AF9 inh
Cc1cnc(C2OCCO2)c2cccc(N)c12 | 16.9
CN(C)CCNC(=O)c1ccc2nc([C@@H]3O[C@H](CO)[C@H](O)[C@H](O)[C@H]3O)[nH]c2c1 | -2.0
OC[C@@H]1[C@H](c2ccc(C3=CCCC3)cc2)[C@@H]2CN(CCC(F)(F)F)CCCCN12 | 5.7
Cc1cccc(S(=O)(=O)N2CCCCN3[C@H](C2)[C@@H](c2ccc(-c4ccccc4)cc2)[C@@H]3CO)c1 | -7.1

Continued.
SMILES | AF4-AF9 inh
COCCOC(=O)N1C(=O)[C@@]2(c3cc(C#CCCO)ccc31)[C@H](c1ccccc1OCCO)N1[C@H](c3ccccc3)[C@H](c3ccccc3)OC(=O)[C@H]1[C@@H]2C(=O)N1CCN(c2ncccn2)CC1 | -0.3
C[C@H](CO)N1C[C@H](C)[C@H](CN(C)Cc2ccccn2)Oc2ncc(Br)cc2C1=O | -3.4
O=S(=O)(c1ccc(F)cc1)N1CCCCN2[C@H](C1)[C@@H](c1ccc(-c3ccccc3F)cc1)[C@@H]2CO | -6.4
CCOc1cc2c(c3c1C(c1ccccc1)N(S(=O)(=O)c1ccc(C)cc1)C3)C(=O)C=CC2=O (configuration not stated) | -4.1
Cc1ccc2c(C)c(C(=O)N3CCC(C(N)=O)(N4CCCCC4)CC3)oc2c1C | 0.9
CC(C)CC#Cc1cnc2c(c1)C(=O)N([C@@H](C)CO)C[C@@H](C)[C@@H](CN(C)C(=O)CC1CC1)O2 | -4.9
CO[C@@H]1CN(C)C(=O)c2cc(NS(=O)(=O)c3ccccc3)ccc2OC[C@@H](C)N(Cc2ccccn2)C[C@H]1C | -0.1
CCOC(=O)[C@]12CCC=C1N(Cc1ccc(Cl)cc1Cl)C(=O)[C@H](CC(=O)NCCC(C)C)C2 | 2.4
CC(=O)c1cccc(-c2ccnc3c2CC(C(=O)Nc2ccc4c(c2)OCO4)O3)c1 (configuration not stated) | 0.4
CCCCNC(=O)C1c2ccccc2OCC(=O)N1Cc1cccnc1 (configuration not stated) | 0.1
Cc1ccc(NC(=O)N2c3ccccc3SC2c2ccco2)c(C)c1 (configuration not stated) | -13.8
COc1ccc(NC(=O)N2CCCCN3[C@H](C2)[C@H](c2ccc(C4=CCCC4)cc2)[C@@H]3CO)cc1 | -5.6
CC1(C(=O)NS(=O)(=O)c2ccc(Cl)cc2)CCN1C(=O)CCC1CCCC1 (configuration not stated) | -0.7
COc1ccc2c(c1)CO[C@]21O[C@H](CCO)C[C@H](O)[C@H]1O | -1.3
NC(=O)[C@@H]1[C@H]2C(=O)O[C@H](c3ccccc3)[C@H](c3ccccc3)N2[C@H](c2ccc(O)cc2)[C@@]12C(=O)Nc1ccc(C#CC3(O)CCCCCC3)cc12 | 2.4
COc1ccc(NC(=O)O[C@H]2[C@H](OC(=O)Nc3ccccc3)[C@H](OC(=O)Nc3ccccc3)[C@@H](OC)O[C@@H]2CO)cc1 | 12.2
Cc1ccc(OCCN2CCC2(C)C(=O)Nc2ccc3c(c2)OCCO3)cc1 (configuration not stated) | 3.6
COC(=O)C(CC#Cc1ccc2c(c1)[C@]1(C(=O)N2)[C@H](c2ccc(OCCO)cc2)N2[C@H](c3ccccc3)[C@H](c3ccccc3)OC(=O)[C@H]2[C@@H]1C(=O)N1CCc2cc(OC)c(OC)cc2C1)C(=O)OC | 0.2
COc1cc(OC)cc(OC)c1 | -1.9
O=S(=O)(c1ccc(F)cc1)N1CCCCN2[C@H](CO)[C@H](c3ccc(-c4ccccc4F)cc3)[C@@H]2C1 | -3.7

Nothing new here: an excerpt of the list.
SMILES | AF4-AF9 inh
COCCOC(=O)N1C(=O)[C@@]2(c3cc(C#CCCO)ccc31)[C@H](c1ccccc1OCCO)N1[C@H](c3ccccc3)[C@H](c3ccccc3)OC(=O)[C@H]1[C@@H]2C(=O)N1CCN(c2ncccn2)CC1 | -0.3
C[C@H](CO)N1C[C@H](C)[C@H](CN(C)Cc2ccccn2)Oc2ncc(Br)cc2C1=O | -3.4
O=S(=O)(c1ccc(F)cc1)N1CCCCN2[C@H](C1)[C@@H](c1ccc(-c3ccccc3F)cc1)[C@@H]2CO | -6.4

The results go on.
SMILES | AF4-AF9 inh
C#CCN([C@@H]1C(=O)N2[C@@H]1SC(C)(C)[C@@H]2C(=O)OC)[C@@H](/C=C/C1CC1)[C@H](O)Cc1ccccc1 | -3.0
CC1(C(=O)NCc2ccccc2Br)CCN1Cc1ccc(-c2ccccc2)o1 (configuration not stated) | 3.0
CCCNC(=O)NC[C@H]1CC[C@@H]2[C@@H](CN2S(=O)(=O)c2ccccc2[N+](=O)[O-])O1 | -1.8
CC(C)=CCN(C(=O)C#Cc1ccccc1)[C@H](CO)c1ccccc1 | 3.9
CC1(C(=O)NS(=O)(=O)Cc2cccc(Cl)c2)CCN1C(=O)CCc1ccccc1 (configuration not stated) | -0.3
COc1cc(CO)cc(I)c1O[C@H]1C=C(C(=O)NCCO)C[C@@H](NC[C@@H]2CCCO2)[C@@H]1O | -3.6
CN1CCN(C(=O)C2=C[C@@H](C3CC3)C[C@@H](OCCCCO)O2)CC1 | -1.7
COc1cccc(C=C2SC(=S)N(Cc3ccco3)C2=O)c1OC | 1.3
COc1ccccc1C#Cc1ccc([C@H]2[C@H](CO)N3CCCCN(C(=O)C4CCCC4)C[C@@H]23)cc1 | 4.3
CN1C(=O)c2cc(NC(=O)c3ccc(F)c(F)c3)ccc2OC[C@@H]2O[C@@H](CC(=O)N3CCOCC3)CC[C@H]21 | 0.6
C[C@H]1CN([C@@H](C)CO)C(=O)c2cc(C3=CCCC3)cnc2O[C@H]1CN(C)Cc1ccccc1F | -1.1
COCCN(C(=O)COC(=O)COc1ccc2ccccc2c1)c1c(N)n(Cc2ccccc2)c(=O)[nH]c1=O | -1.4
C[C@H](CO)N1C[C@H](C)[C@@H](CN(C)Cc2ccc(C(=O)O)cc2)Oc2cc(/C=C/c3ccccc3)ccc2S1(=O)=O | 3.9
